MgrA DNA FP: alters Staphylococcus aureus MgrA binding to DNA; fluorescence polarization; inhibition, %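 (about 10 µg/mL by stock and volumes)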; hit rate 0.13% among 84,000; AID 602314;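 active means above 50% in either of two replicates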;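 further: 0% = protein plus DNA without compound and 100% = DNA alone without protein; higher means less MgrA bound to DNA so lower polarization; one replicate is shown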
S aureus helic: S. aureus DNA helicase inhibition; purified S. aureus helicase, fluorescence unwinding assay; about half of the hits fall short of the stated cut; inhibition, %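 (tested at about 80 µM)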; hit rate 0.05% among 120,000;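 active means both duplicates at 50% or more, or one of them with a favoured structure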;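 further: 0% = mean of negative control wells and 100% = mean of positive control wells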
* hit, by the source's call; i = inactive; · = no result given; & = joins results of further samples. These rows are one share of the data; count on the stated rates, not on these rows.

molecule	MgrA DNA FP	S aureus helic
COCc1c(C(=O)Nc2cc(C(F)(F)F)ccc2-n2cncn2)oc2ccccc12	·	4
Cc1ccc(NC(=O)N2CCC(n3nnc(-c4cccs4)n3)CC2)cc1	1.8	5
COc1cc(Cl)c(C)cc1NC(=O)CCc1nc2ccccc2[nH]1	·	7
CC1CCN(c2nc3nonc3nc2Nc2ccc3c(c2)OCO3)CC1	0.2	-5
CCOC(=O)c1cc(OCC(=O)NC(C)C(C)C)cc(C(=O)OCC)c1 (stereo unspecified)	·	12
Nc1[nH]c(=O)[nH]c(=O)c1N=Nc1ccc(SC(F)F)cc1	·	25
Clc1ccccc1-c1nnc(-c2ccccc2CN2CCN(c3ccccc3)CC2)o1	·	-12
CC(C(=O)Nc1sc2c(c1C#N)CCCCC2)N1C(=O)c2ccccc2C1=O (stereo unspecified)	·	4
Cn1nnnc1SCC1=C(C(=O)O)N2C(=O)[C@@H](NC(=O)[C@H](O)c3ccccc3)[C@H]2SC1	6.0	·
CC1CCC(NC(=O)CCC2=NS(=O)(=O)c3ccccc3N2)CC1 (stereo unspecified)	·	4
COc1ccc(NC(=O)c2cc(C)no2)cc1	·	6
COc1ccc(Cc2nnc3n2N=C(c2ccc(CNC(C)=O)o2)CS3)cc1	·	-10
Cn1c(SCc2ccccc2)nc(N)cc1=O	-0.5	17
CCCCCCC#Cc1cncc(C(=O)O)c1	2.6	·
O=C(Nc1cccc(-c2nc3ccccc3c(=O)o2)c1)c1ccccc1Br	2.1	9
O=C1c2cccc3c([N+](=O)[O-])ccc(c23)C(=O)N1Cc1ccco1	2.7	·
O=C(O)c1cccc(S(=O)(=O)N2CCCC2)c1	·	22
CCOc1ccc2c(c1)C(C)=CC(C)(C)N2	0.8&-1.2	·
C[C@@H](C(=O)Nc1ccccc1N1CCOCC1)N1C(=O)C2CC=CCC2C1=O (stereo partly specified)	·	-5
CC(=C/C(=O)O)/C=C/c1cccs1	·	15

4 compounds out of the list, arranged by number of heavy atoms, highest first:
molecule	MgrA DNA FP	S aureus helic
Clc1ccccc1-c1nnc(-c2ccccc2CN2CCN(c3ccccc3)CC2)o1	·	-12
COc1ccc(Cc2nnc3n2N=C(c2ccc(CNC(C)=O)o2)CS3)cc1	·	-10
Nc1[nH]c(=O)[nH]c(=O)c1N=Nc1ccc(SC(F)F)cc1	·	25
CCCCCCC#Cc1cncc(C(=O)O)c1	2.6	·

(more compounds)
molecule	MgrA DNA FP	S aureus helic
Cc1c(OCC(N)=O)ccc2c3c(c(=O)oc12)CCCC3	·	12
N=c1scc(-c2ccc(Br)cc2)n1-c1ccccc1	-1.8	·
O=C(NC(=O)C1CCCCC1)c1ccccc1O	-2.2	·
N#Cc1ccccc1Sc1ccccc1C(=O)NCC(c1ccco1)N1CCCC1 (stereo unspecified)	·	-10
O=C(Nc1cc(=O)[nH][nH]1)c1cc(-c2ccc(F)cc2)nc2ccccc12	6.5	2
Cn1nc(C(=O)N2CCCC2)c2ccccc2c1=O	-2.7	10
Cc1ccc(-n2nc3c(c2NC(=O)CCC2CCCC2)CS(=O)C3)cc1 (stereo unspecified)	·	16
O=C(O)C1CCN(C(=O)c2ccc(F)cc2F)CC1	-1.8	·
Cc1cc(N2CCN(CC(O)C(F)(F)F)CC2)c2ccccc2n1 (stereo unspecified)	-0.8	·
C=CCOc1cccc(CNn2nnnc2N)c1	-1.3	11
CC(O)(CNCc1ccc(Cl)cc1)CSc1ccc(Cl)cc1 (stereo unspecified)	-0.1	·
CC(=O)NCc1ccc(C(=O)CSc2nnc(-c3ccccc3)o2)cc1	·	3
CC(=O)Nc1ccc(-c2cn(CC(N)=O)cn2)cc1	·	4
Clc1cccc(C2C=C(c3ccccc3Cl)Nc3ncnn32)c1 (stereo unspecified)	-3.8	0
C=CCNc1nc(C(=O)OCC(=O)N(C2CCCCC2)C2CCS(=O)(=O)C2)cs1 (stereo unspecified)	·	-13
Cc1nc(CSc2nc3scc(-c4ccco4)c3c(=O)n2-c2ccccc2)cs1	18	6
C=CCn1c(SCC(=O)c2ccccc2)nnc1-c1ccc2c(c1)OCO2	·	1
Nc1ccc(Br)cc1-c1nc2ccccc2[nH]c1=O	-0.4	8
O=C(NC1CCN(Cc2ccccc2)CC1)c1ccc2c(c1)CCO2	-1.1	·
CCC1CCCCN1S(=O)(=O)Cc1ccccc1Cl (stereo unspecified)	-0.2	5
CC(C)(C)C(=O)Nc1ccncc1C(=O)O	-3.2	·
Cc1ncc(-c2cc3c(ccc4ccccc43)oc2=O)s1	-3.0	-20
O=C(c1nn2c(C(F)(F)F)cc(-c3ccccc3)nc2c1Br)N1CCOCC1	0.7	·
Cc1nc(N)nc(CSc2ccc(Cl)cc2)n1	0.6	·
NS(=O)(=O)c1ccc(NC(=O)COc2ccccc2)cc1	·	0
CCNC(=O)CSc1nc2ccccc2[nH]1	·	-9
C#CCn1c(=NC(=O)C2CC2)sc2ccccc21	·	15
N/C(=N\O)c1cccc(NC(=O)C2CC2)c1	·	22
CN(C/C(O)=C(\C#N)c1ccccc1)C1CCCCC1	·	7
COc1cc(NC(=O)c2cnc(N3CCCC3)nc2)cc(OC)c1OC	·	9
Cn1ccnc1SCc1nc(-c2ccccc2)no1	·	2
COc1ccc2cc3cc(C(=O)NCc4ccco4)oc3nc2c1	7.8	14
C/C(N)=C(/C#N)C(=O)CSc1nc2ccccc2c(=O)n1-c1ccc(C)cc1	·	15
COc1cc(NC(=S)N2CCCCC2CO)cc(OC)c1 (stereo unspecified)	2.8	4
O=C(NC1CCCCC1)C(Cc1c[nH]c2ccccc12)NC(=O)C(c1ccccc1)c1ccccc1 (stereo unspecified)	-2.4	8
Cc1nnc(Nc2ccccc2)c2c1nnn2Cc1ccccc1Cl	·	5
Cc1nn(-c2ccccc2)c2nc3oc(C(=O)c4ccc(Br)cc4)c(N)c3c(-c3cccnc3)c12	·	-133
N#Cc1c(-c2ccccc2)cc(-c2ccccc2)nc1SCC(O)CS(=O)Cc1ccccc1 (stereo unspecified)	5.6	12
Cc1ccccc1OCC(=O)N1CCc2ccccc2C1	3.1	9
COc1cc(OC)cc(-c2nnc(NC(=O)c3ccc(S(=O)(=O)N(C)c4ccccc4)cc3)o2)c1	·	4
COc1ccc(NC(=O)c2ccc(C3SCC(=O)N3Cc3ccco3)cc2)cc1 (stereo unspecified)	7.4	5
Cc1ccccc1-n1c(-c2ccc(Br)cc2)n[nH]c1=S	-2.0	1
CCc1ccc(C(=O)CSc2nnc(-c3nn(Cc4ccccc4)c(=O)c4ccccc34)o2)cc1	·	0
CSC(N)=Nc1csc(C(F)(F)F)c1-c1ccccc1	-2.9	·
O=C(C[n+]1ccccc1)Nc1c2c(nc3c1CCC3)CCCC2	2.5	4
O=C(CNS(=O)(=O)c1ccccc1)N1CCN(c2ccccc2)CC1	0.7	8
COc1ccc(-c2csc(NC(=O)C(C)C)n2)cc1	1.4	19
CC(=O)Nc1[nH]cc(C)c1C#N	0.2	·
COc1cc(C2NC(=O)NC(C)=C2C(=O)OC(C)C(C)(C)C)cc(Br)c1O (stereo unspecified)	-1.0	·
CCn1c(C)nc2cc(C(=O)Nc3nnc(-c4ccccc4Cl)s3)ccc21	-4.0	4
O=c1cc(N2CCCCC2)nc2scc(-c3ccccc3)n12	0.7	4
COc1ccc(-c2ccc3cnn(Cc4cccs4)c3n2)cc1	·	-4
O=C(Cn1c(C(=O)N(Cc2ccco2)CC2CCCO2)cc2sccc21)c1ccccc1 (stereo unspecified)	-0.5	10
Cc1cc(C)c2c(N)c(C(=O)Nc3ccc(Br)cc3)sc2n1	-0.4	·
O=c1[nH]c2c(s1)C(c1cccs1)C1C3CCC(C3)C1S2 (stereo unspecified)	·	9
Nc1ccc(/C=C/C(=O)O)cc1	·	4
CC(C)(C)N/C=C(\C#N)S(=O)(=O)c1ccc(Br)cc1	-0.9	·
COC(=O)C(CC(=O)c1cccc(C)c1)c1ccc(Cl)cc1 (stereo unspecified)	1.1	·
O=C(Cn1nc(C(F)(F)F)c2c1CCCC2)N(Cc1ccccc1)Cc1ccccc1	-2.5	7
O=C(Nc1nnc(-c2ccccc2Cl)o1)c1ccc(S(=O)(=O)N2CCCC2)cc1	·	4

(further entries)
molecule	MgrA DNA FP	S aureus helic
O=C(O)CCCNc1cc(N2CCCC2)c2noc3c2c1C(=O)c1ccccc1-3	·	-44
CC1CCc2nc(NC(=O)NCCCN3CCOCC3)sc2C1 (stereo unspecified)	·	-10
NC(N)=NS(=O)(=O)c1ccc(N=Cc2ccc3c(c2)OCO3)cc1	·	12
CCCn1c(C(=O)OCC)cc2sccc21	0.7	4
COc1ccc2c(c1OC)C(=O)OC2Nc1ccccn1 (stereo unspecified)	·	-13
Nc1ccc(N2CCOCC2)c(N)c1	45	-4
CCN(C(=O)Nc1ccccc1)c1ccccc1	-1.8	4
CC1(C)OC(=O)C(=Cc2cccs2)C(=O)O1	13	·
CC(=O)Nc1nc(-c2ccc(S(=O)(=O)N3CCOCC3)cc2)cs1	·	-23
S=C1NC2(CCCC2)NN1c1ccccc1	-0.9	·
C=C1SC(Nc2cccc(C)c2)=NC1(C)C	1.5	·
CCn1cc(C(=O)NC2CCCCC2)c(=O)c2cc(S(=O)(=O)N3CCCC3)ccc21	·	-11
O=C(/C=C/c1ccccc1)Sc1nc2ccccc2o1	0.9	-9
Cc1cc(O)c(Cc2c(O)cc(C)n(C)c2=O)c(=O)n1C	·	4
NC(=O)c1ccccc1NC(=O)c1cccnc1N1CCCC1	-2.8	5
O=C(CC(SCc1ccco1)c1ccc(F)cc1)c1ccco1 (stereo unspecified)	·	-4
Cc1nc2ccc(NC(=S)NCCCO)cc2nc1C	-1.9	8
CCCc1cc(C(=O)NC(C)C)no1	·	-5
CCOC(=O)c1ccc(NC(=O)CC2C(=O)N(c3ccc(F)cc3)C(=O)N2Cc2cccs2)cc1 (stereo unspecified)	-1.9	9
CCn1c(C)c(C)c2cc(C(=O)NCc3cccs3)ccc21	·	1
CCOC(=O)c1c[nH]c(=S)[nH]1	3.9	·
CCOC(=O)/C(C#N)=C1/C(=O)Nc2ccc(Br)cc21	7.0	·
Cc1cc(Br)ccc1Nc1ncnc(N)n1	-0.7	·
Cc1nnsc1C(=O)NCc1csc2ccc(Cl)cc12	-0.7	·
Cc1c(C(=O)Nc2ccccc2)sc2ncn(CC(N)=O)c(=O)c12	0.2	5
C#C[C@]1(O)CC[C@H]2[C@@H]3CCC4=C(CCC(=O)C4)[C@H]3CC[C@@]21C	4.9	·
Cc1[nH]n(-c2cccc(Cl)c2)c(=O)c1C1CC(=O)N(c2ccccc2)C1=O (stereo unspecified)	-1.2	-7
O=C(CN1C(=O)c2ccccc2C1=O)NC1=NCCS1	-3.6	1
COc1ccc(NC(=O)CNc2ccc(NC(C)=O)cc2)c(OC)c1	·	10
O=c1[nH]c2cc(C(F)(F)F)ccc2n(CCNc2ncc(C(F)(F)F)cc2Cl)c1=O	3.0	·
CCOc1ccc2oc(=O)cc(CN3CCOCC3)c2c1	·	5
CCCCC(=O)c1ccc(O)cc1	2.2	1
CC(C)CCOc1ccc(C(=O)C(CN2CCOCC2)c2ccccc2)cc1 (stereo unspecified)	-1.0	18
CN(C)c1ccc(/C=C2\CCC(=C3SCCCS3)C2=O)cc1	·	i
COc1ccc(-c2oc3ncn(Cc4ccco4)c(=N)c3c2-c2ccc(OC)cc2)cc1	·	-40
CC(=O)Nc1ccc2c(CSc3nnc(-c4cccs4)n3CC3CCCO3)cc(=O)oc2c1 (stereo unspecified)	·	8
COc1cnn(-c2ccccc2)c(=O)c1OC	-0.8	16
O=C(OCC(=O)N1CCc2ccccc21)C1CC2C=CC1C2 (stereo unspecified)	-1.6	10
CCC(=O)N=c1sc2cc(Br)ccc2n1CCOC	·	2
CN1C(=O)N(C)C(=O)C(CCc2ccncc2)(C2(C#N)CCCCC2)C1=O	2.5	-3
COc1ccc(CN2CCN(C(=O)c3c(C)nn(Cc4ccccc4)c3C)CC2)cc1F	·	17
Cn1c(P(C)(=O)O)nc2ccccc21	-1.4	-5
COc1cc(/C=C2\CCc3ccccc3C2=O)cc(OC)c1	-0.1	·
O=C(Nc1ccccc1N1CCOCC1)C1CCN(c2nccc(C(F)(F)F)n2)CC1	·	-13
COc1ccccc1NC(=O)CCc1c(C)[nH]c(=O)c(C#N)c1C	·	12
O=C(O)C12CC3CC(C1)CC(n1ncc(NCc4ccc(F)cc4)c(Cl)c1=O)(C3)C2	-0.4	5
O=c1[nH]c(=O)n(C2C[C@@H](O)[C@@H](CO)O2)cc1F (stereo partly specified)	1.8	·
O=C(/C=C/c1cn(-c2ccccc2)nc1-c1ccc(F)cc1)NCc1ccccn1	0.2	-45
COc1ccc2cc(C(=O)CBr)ccc2c1	-1.2	-3
C1=Cc2ccccc2Nc2ccccc21	·	-12
O=C(CCc1nc2ccccc2c(=O)[nH]1)OCc1ccccc1	·	1
Cn1c(Sc2nnnn2-c2ccccc2)nnc1C(F)(F)F	·	-9
O=c1c2c(-c3ccccc3)ccnc2[nH]n1-c1ccccc1	0.5	22
CCCc1nc2ccccc2n1CC(=O)N1CCc2ccccc21	0.3	2
C=CCN(C(=O)Cc1ccc(OC)cc1)c1nnc(-c2ccc(Cl)cc2)s1	0.1	9

Screening data deposited in PubChem BioAssay by ICCB-Longwood Screening Facility, Harvard Medical School.
